Bioassay records deposited in PubChem by several laboratories.
Ecoli rRNA inh = selective bacterial rRNA inhibition in E. coli | E. coli WT GFP vs humanized-ribosome RFP mutants, fluorescence, 24 h; active compounds read low; DMSO median 0, no signal -100 | GFP signal change (wild-type ribosome), % (no concentration beside the values) | actives 1.6% (n = 350,000) | AID 720706;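 active means significant combined selectivity score with lowered wild-type GFP, culture density cut under 30%, mutant RFP and density less affected; inactive means any of these conditions unmet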; further: one replicate is shown; some compounds called inactive have numbers as strong as hits
UCH37 inh = inhibitors of human deubiquitinating enzyme UCH37 | actives 0.33% (n = 330,000) | purified proteasome/UCH37, Ub-AMC cleavage fluorescence | Q9Y5K5 | inhibition, % (test concentration not listed);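 active means mean of two replicates above 20%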;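 further: 0% = compound-free wells with enzyme and 100% = wells lacking proteasome; stock transfer was 100 nL into about 20 µL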
Target sequence (Q9Y5K5 whole entry, looked up): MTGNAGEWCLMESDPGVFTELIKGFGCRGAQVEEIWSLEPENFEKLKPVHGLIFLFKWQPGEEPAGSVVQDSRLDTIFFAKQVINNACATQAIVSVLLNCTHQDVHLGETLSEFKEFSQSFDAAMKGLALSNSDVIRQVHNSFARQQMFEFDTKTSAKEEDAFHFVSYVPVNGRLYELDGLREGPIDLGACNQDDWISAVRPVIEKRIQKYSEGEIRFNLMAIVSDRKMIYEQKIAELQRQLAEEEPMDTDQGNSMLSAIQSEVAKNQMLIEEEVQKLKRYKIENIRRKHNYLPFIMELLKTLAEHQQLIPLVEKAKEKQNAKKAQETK
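Reagent: Ub-AMC substrate; assay system: Proteasome-associated human UCH37 deubiquitinase; controls: no-proteasome and no-compound wells; read-out: % inhibition of Ub-AMC cleavage fluorescence; timing: 30 min preincubation with enzyme, 25 min cleavage at room temperature; signal: AMC fluorescence from Ub-AMC cleavage, excitation 355 nm, emission 460 nm; buffer or medium: Tris-HCl pH 7.4 plus ovalbumin, ATP-MgCl2, DTT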
AF4-AF9 inh = inhibitors of human MLL-AF4/AF9 interaction. inhibition, % at 10 µM. AlphaScreen, biotin-AF4 peptide binding to FLAG-AF9. AID 651704. actives 0.47% (n = 350,000). P42568;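 active means every replicate reaching a set inhibition limit, whatever the replicate mean, cut at about 25% in these data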;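 further: 0% = plate neutral control median and 100% = total signal loss; the record names both 10 and 1 µM as test concentration; the first replicate is given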
Target sequence (P42568 whole entry, looked up): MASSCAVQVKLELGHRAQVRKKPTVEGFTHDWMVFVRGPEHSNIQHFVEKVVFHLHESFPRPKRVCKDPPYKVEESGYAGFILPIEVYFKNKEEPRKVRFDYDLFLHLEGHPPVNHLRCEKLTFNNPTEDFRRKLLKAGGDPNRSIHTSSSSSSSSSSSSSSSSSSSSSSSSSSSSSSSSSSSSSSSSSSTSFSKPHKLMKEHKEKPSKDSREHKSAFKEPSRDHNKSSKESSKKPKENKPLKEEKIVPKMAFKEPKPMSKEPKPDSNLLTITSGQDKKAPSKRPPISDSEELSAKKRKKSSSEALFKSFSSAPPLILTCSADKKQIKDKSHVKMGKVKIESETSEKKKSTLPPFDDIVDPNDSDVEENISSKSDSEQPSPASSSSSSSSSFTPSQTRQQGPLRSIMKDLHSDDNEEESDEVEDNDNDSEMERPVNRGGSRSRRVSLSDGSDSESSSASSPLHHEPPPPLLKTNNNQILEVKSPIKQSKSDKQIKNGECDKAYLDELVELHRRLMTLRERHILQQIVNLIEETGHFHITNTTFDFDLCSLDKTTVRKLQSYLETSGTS
Bfl-1 A1 inh = inhibitors of the anti-apoptotic protein A1, read as caspase activation | MEF A1-2A-BIM cells, Caspase-Glo 3/7 luminescence, 3 h; percent of clofoctol response, vehicle zero | caspase activation, % (no concentration beside the values) | actives 0.066% (n = 330,000) | AID 2462;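 active means over half of replicate activation scores above 10%, or exactly half above 10 with the replicate mean above 10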;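 further: wells of about 30 µL received 50 nL stock; many hits fall short of the cut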
T cruzi inh = blocks replication of Trypanosoma cruzi. inhibition, % (concentration not given with the values). T. cruzi beta-gal in NIH3T3, luminescence, 90 h. actives 1.4% (n = 300,000). AID 1885;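 active means mean inhibition across valid replicates above about 55%, limit read from the data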;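 further: signal also drops with host cell toxicity which is not excluded here; 0% = plate median of DMSO wells and 100% = zero luminescence signal; higher percent means less beta-gal luminescence so fewer parasites; stock transfer was 50 nL into about 50 µL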
Ecoli growth = blocks Escherichia coli growth; OD600, 23 h; active compounds read low; OD600 absorbance (test concentration not listed); actives 0.21% (n = 330,000); AID 1053175;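 active means OD600 absorbance below the run mean of sample wells minus 3.6 SD, in any replicate, cut at about 0.56 in these data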;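 further: stock transfer was 300 nL into about 60 µL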
FGF22 binding = FGF22 (human) thermal shift binding; recombinant FGF22 thermal shift, SYPRO orange fluorescence; percent of sucrose octasulfate shift, DMSO zero; actives 1.5% (n = 340,000); calls only at 9.99 µM; AID 651658; Q9HCT0;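 active means melting point raised past a set limit in the mean and every replicate; three in four hits are not shown here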
Target sequence (Q9HCT0 whole entry, looked up): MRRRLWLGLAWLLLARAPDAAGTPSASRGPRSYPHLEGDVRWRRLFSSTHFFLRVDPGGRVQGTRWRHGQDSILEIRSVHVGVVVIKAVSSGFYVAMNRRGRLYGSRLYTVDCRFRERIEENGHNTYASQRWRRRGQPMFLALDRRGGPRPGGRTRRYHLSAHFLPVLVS
Beta cell apopt = beta cell apoptosis inhibition; INS-1E cytokine-induced death, ATP luminescence, 48 h; percent of positive-control rescue, neutral wells zero; protection from apoptosis, % (test concentration not listed); actives 0.8% (n = 300,000);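 active means all replicates at 75% or more, or half of them and the mean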;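 further: 0% = cytokine-treated negative control wells and 100% = positive control rescue; higher means more ATP so stronger rescue from cytokine killing; wells of about 40 µL received 100 nL stock; the first replicate is given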
Ecoli rRNA inh OD600 = further read-out of Ecoli rRNA inh, marked with its call; OD600 change, %; measured here: OD600 growth;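 optical density of the mix in the first replicate; 0 = DMSO median and -100 = no signal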
Ecoli rRNA inh RFP = recorded beside Ecoli rRNA inh, whose call it bears; RFP signal change, %; measured here: RFP humanized mutant strains;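 first replicate; 0 = DMSO median and -100 = no signal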
The depositor's hits bear a star; i = inactive; x = not tested or not shown. An excerpt. The share of hits here may be higher or lower than overall.

1. COc1ccc(C2C(C#N)=C(N)N(N(C)C)C3=C2C(=O)CC(C)(C)C3)cc1OC (centres undefined)
2. Cc1cc(NC(=O)c2ccc(S(=O)(=O)N3CCc4ccccc43)cc2)no1
3. Cc1ccc(S(=O)(=O)N2CCN(CC3CC4C=CC3C4)CC2)cc1 (centres undefined)
4. COc1ccc(NC(=O)CSc2ccc([N+](=O)[O-])cc2)cc1S(=O)(=O)N1CCOCC1
5. COc1cc(CNCCN(C)C)c(Br)cc1OC1CCCC1
6. CC(C)(C)c1cc(C(=O)N/N=C/c2ccc(F)cc2)n(-c2ccccc2)n1

entry no.,1,2,3,4,5,6
Ecoli rRNA inh,8,12,-4,x,-8,-21
T cruzi inh,-3,19,-6,x,9,18
Beta cell apopt,-1,2,-5,x,1,9
FGF22 binding,i,i,i,i,i,i
UCH37 inh,5.2,1.4,x,9.2,1.8,x
Ecoli rRNA inh RFP,0.5,1.2,1.0,x,-0.4,-2.6
Bfl-1 A1 inh,-0.1,0.4,0.0,x,0.0,-0.2
AF4-AF9 inh,0.4,-1.0,-1.3,1.3,3.5,8.1
Ecoli rRNA inh OD600,5,9,-17,x,-3,-21
Ecoli growth,0.65,0.69,x,0.64,0.65,x

7. CCCC1O[C@@H]2CC3C4CCC5=CC(=O)C=C[C@]5(C)C4C(OC(C)=O)C[C@]3(C)[C@]2(C(=O)COC(C)=O)O1 (some centres undefined)
8. COCCNC(=O)CSc1ccccc1C(=O)O
9. CC(=O)N(Cc1cc(=O)[nH]c2ccccc12)c1ccc(C)cc1C
10. CC(C)(C)NC(=S)N/N=C/c1cc(Br)c(O)c(Br)c1
11. NC(=O)CN1C(=O)C(O)(CC(=O)c2ccccc2O)c2ccccc21 (centres undefined)
12. O=C(NCCc1ccccn1)c1cc2ccccc2o1

entry no.,7,8,9,10,11,12
Ecoli rRNA inh,x,27,2,-40*,7,7
T cruzi inh,12,-13,0,27,-7,-5
Beta cell apopt,20,-3,3,5,x,-3
FGF22 binding,x,i,i,i,i,i
UCH37 inh,3.4,1.9,5.4,x,x,-1.1
Ecoli rRNA inh RFP,x,-2.0,9.1,-9.0*,1.4,0.8
Bfl-1 A1 inh,-0.2,-0.1,0.5,-0.2,0.9,0.8
AF4-AF9 inh,x,-2.4,0.0,6.2,-0.3,0.2
Ecoli rRNA inh OD600,x,24,0,9.1*,8,15
Ecoli growth,0.66,0.69,0.66,x,x,0.62

13. O=C(O)C1=C[C@@H](C2CC2)C[C@@H](OCCCCO)O1
14. Cc1c(C(=O)NCC2CCCO2)oc2c(Cl)cccc12 (centres undefined)
15. O=C(NC1CCCC1)C1CCC(CNS(=O)(=O)c2ccccc2)CC1 (centres undefined)
16. COc1ccc(C(=O)C2CCCN(C(=O)c3ccc(F)cc3)C2)cc1OC (centres undefined)
17. CC(C)Cc1nnc(NC(=O)CCC(=O)NC2CCCCCCC2)s1
18. COc1cccc(NC(=O)N2CCC(n3nnc4ccccc43)CC2)c1

entry no.,13,14,15,16,17,18
Ecoli rRNA inh,x,-5,7,0,-1,x
T cruzi inh,-10,-9,-5,10,-7,15
Beta cell apopt,-4,-2,x,-5,-9,2
FGF22 binding,x,i,i,i,i,x
UCH37 inh,0.6,2.3,5.4,3.8,0.3,-0.3
Ecoli rRNA inh RFP,x,1.9,0.9,2.2,-0.4,x
Bfl-1 A1 inh,-0.7,-0.2,2.0,1.0,-0.6,0.7
AF4-AF9 inh,x,-2.1,0.8,4.5,-1.9,-0.2
Ecoli rRNA inh OD600,x,1,7,-1,6,x
Ecoli growth,x,0.69,0.68,0.7,0.67,0.67

19. CCc1cccc(CC)c1NC(=O)NC1CCCCC1
20. O=C(COC(=O)c1n[nH]c2ccccc12)Nc1ccccc1Br
21. COc1ccc(C(=O)CSc2ncnc3nc[nH]c23)cc1
22. Cc1ccc(CC(=O)NCCCc2ccccc2)cc1
23. O=C1CCCC2=C1C(c1ccc(OS(=O)(=O)c3ccc(Cl)cc3)cc1)C1=C(CCCC1=O)O2
24. Cc1noc(C)c1CSc1nnc2n(-c3ccccc3)c(=O)c3ccccc3n12

entry no.,19,20,21,22,23,24
Ecoli rRNA inh,x,1,-11,x,x,4
T cruzi inh,10,x,-11,-11,29,15
Beta cell apopt,4,3,0,x,7,-2
FGF22 binding,x,i,i,x,x,i
UCH37 inh,3.7,2.5,0.7,2.3,0.5,-1.0
Ecoli rRNA inh RFP,x,-0.5,1.6,x,x,-8.2
Bfl-1 A1 inh,0.5,-0.1,0.4,2.2,-0.5,0.9
AF4-AF9 inh,x,4.6,x,x,x,-9.1
Ecoli rRNA inh OD600,x,2,-12,x,x,2
Ecoli growth,0.66,0.68,0.59,0.67,0.72,0.69

25. CC(=O)N/C(=C\c1ccc(F)cc1)C(=O)NC(Cc1ccccc1)C(=O)O (centres undefined)
26. Cc1nn(-c2ccccc2)c2c1C(c1ccc(Cl)cc1)N(c1ccccc1)C(=O)N2 (centres undefined)
27. CCCCn1c(N)c(N(CCOC)C(=O)COC(=O)c2ccccc2OCC)c(=O)[nH]c1=O
28. COC(=O)c1cc(CSc2nnc(NC3CCCCC3)s2)oc1C
29. CC(C)(C)C(=O)Nc1nnc(COc2ccc(Cl)cc2)s1
30. COC(=O)CCC(=O)Nc1sc(C)c(C)c1C(N)=O

entry no.,25,26,27,28,29,30
Ecoli rRNA inh,10,3,5,x,-10,x
T cruzi inh,-7,14,-10,15,4,-17
Beta cell apopt,-3,-3,-5,-3,-10,-7
FGF22 binding,i,i,i,x,i,x
UCH37 inh,4.6,3.2,0.5,0.5,0.1,-3.1
Ecoli rRNA inh RFP,0.7,-3.2,-0.3,x,1.8,x
Bfl-1 A1 inh,0.3,1.2,0.5,-0.6,0.0,-0.3
AF4-AF9 inh,-0.9,1.1,-5.1,x,0.4,x
Ecoli rRNA inh OD600,1,6,13,x,-2,x
Ecoli growth,0.71,0.7,0.69,0.66,0.68,0.77

31. Cc1ccc(C2NC(=O)NC(O)(C(F)(F)F)C2C(=O)c2cccs2)o1 (centres undefined)
32. Cc1ccc(C23CCC(=O)N2C(C(=O)O)CS3)c(C)c1 (centres undefined)
33. O=[N+]([O-])c1ccc(S(=O)(=O)NCC(c2ccco2)N2CCc3ccccc3C2)cc1 (centres undefined)
34. O=C1c2cccnc2C(=O)N1Cc1ccc2c(c1)OCO2
35. CCCn1nnnc1SCC(=O)N1CCN(C(=O)c2ccco2)CC1
36. CC(=O)c1cccc(NC(=O)C2CC(c3ccc(F)cc3)=NO2)c1 (centres undefined)

entry no.,31,32,33,34,35,36
Ecoli rRNA inh,x,19,14,x,x,x
T cruzi inh,6,-13,61*,-8,-2,13
Beta cell apopt,-5,x,-4,-18,x,-2
FGF22 binding,x,i,i,x,x,x
UCH37 inh,-0.4,0.2,1.6,1.8,-0.3,1.7
Ecoli rRNA inh RFP,x,-2.1,-0.3,x,x,x
Bfl-1 A1 inh,0.8,-0.4,-0.4,0.1,0.3,0.3
AF4-AF9 inh,x,-1.2,2.2,x,x,x
Ecoli rRNA inh OD600,x,9,2,x,x,x
Ecoli growth,0.71,0.7,0.64,0.66,0.69,0.67

37. CCOC(=O)c1[nH]c(C)c(/C(O)=C2\C(=O)C(=O)N(CCN(C)C)C2c2ccncc2)c1C (centres undefined)
38. Cc1ccc(-c2noc(CC(c3ccccc3)c3ccccc3)n2)cc1
39. COc1cccc(OC)c1C(=O)OCC(=O)NCC(C)C
40. O=C(/C=C/N1CCOCC1)c1ccc(-c2ccccc2)cc1
41. COC(=O)[C@@H]1CCCN1C(=O)c1cc(COc2cccc3cccnc23)on1
42. COc1ccc(N2CCN(c3ncnc4scc(-c5ccc(F)cc5)c34)CC2)cc1

entry no.,37,38,39,40,41,42
Ecoli rRNA inh,x,x,-4,x,-11,-24*
T cruzi inh,-5,24,9,-1,-10,23
Beta cell apopt,-8,11,-7,-1,-6,14
FGF22 binding,x,x,i,x,i,i
UCH37 inh,29*,2.4,5.7,16,-5.0,0.7
Ecoli rRNA inh RFP,x,x,-1.9,x,7.9,-2.5*
Bfl-1 A1 inh,-0.6,2.2,0.2,-0.5,-0.5,0.6
AF4-AF9 inh,x,x,-0.5,x,-1.8,16
Ecoli rRNA inh OD600,x,x,-20,x,-2,-16*
Ecoli growth,x,0.68,0.7,0.68,0.74,0.69

43. Cc1ccccc1NC(=O)CCN1CCCCCC1
44. Cc1nn(C)cc1CNC(=O)c1cccc(Br)c1
45. Cn1ncc2c(NCc3ccccc3)nc(NCCCO)nc21
46. Nc1cc(N)nc(SCC(=O)NCC2CCCO2)n1 (centres undefined)
47. CC(=O)c1c(C)[nH]c(C(=O)Nc2ccc(C)cn2)c1C
48. CCOC(=O)N1CCN(c2ccc(F)cc2[N+](=O)[O-])CC1

entry no.,43,44,45,46,47,48
Ecoli rRNA inh,x,x,0,x,x,x
T cruzi inh,-27,-2,5,-6,1,3
Beta cell apopt,-6,1,3,3,-7,-2
FGF22 binding,x,x,i,x,x,x
UCH37 inh,-0.2,2.0,2.5,2.9,0.7,4.0
Ecoli rRNA inh RFP,x,x,-4.0,x,x,x
Bfl-1 A1 inh,-0.4,0.1,0.4,-0.7,-5.2,0.5
AF4-AF9 inh,x,x,-4.0,x,x,x
Ecoli rRNA inh OD600,x,x,6,x,x,x
Ecoli growth,0.73,0.64,0.73,0.69,0.71,0.69

49. COc1ccccc1NC(=O)Nc1nc(CC(=O)Nc2ccc(F)cc2)cs1
50. CC(=O)N1CCN(c2ccc(NC(=O)c3cccc([N+](=O)[O-])c3)cc2)CC1
51. Cc1cccc(NC(=O)Cn2nnc(-c3cccs3)n2)c1C
52. CCN(CC)S(=O)(=O)c1cc(C(=O)Oc2cccc(-c3cnc4ccccc4n3)c2)ccc1OC
53. Cc1ccc(SCCOCCN2CC(C)OC(C)C2)cc1 (centres undefined)
54. O=C(CN1c2ccccc2Sc2ccccc21)N/N=C/c1ccc([N+](=O)[O-])cc1

entry no.,49,50,51,52,53,54
Ecoli rRNA inh,-8,5,3,x,0,-24*
T cruzi inh,0,-3,-4,16,57*,34
Beta cell apopt,4,-6,4,-6,-13,32
FGF22 binding,i,i,x,i,i,i
UCH37 inh,1.9,4.0,2.5,4.8,5.1,x
Ecoli rRNA inh RFP,-1.6,-4.1,-3.6,x,0.1,3.9*
Bfl-1 A1 inh,2.1,-0.6,0.3,-5.4,-0.2,0.8
AF4-AF9 inh,3.0,-0.7,x,-2.2,1.3,4.1
Ecoli rRNA inh OD600,-12,10,9,x,-2,-3.3*
Ecoli growth,0.62,0.66,0.69,0.69,0.66,x
